2A StopGo: lowers the luciferase signal of an FMDV 2A StopGo reporter; hit rate 1.2% among 410,000; human cells with a luciferase reporter of 2A StopGo recoding; control for the full effect not named in the record; Potency, µM (doses to about 57.9 µM), inactives show at the highest dose signal change, negative = less light; AID 1159524; active = well fitted falling curve with a large enough effect; inconclusive = small, poorly fitted or top-dose-only effect; inactive = no such curve, though single readings can be large or run the other way; tested in HEK293T cells; further: on the % scale 0 is the no-effect control and ±100 the full control effect; nearly all actives have a fitted effect of over 45% in size; luciferase light after 4 h
NS1 function inh: blocks influenza NS1 protein function; S. cerevisiae slowed by influenza A NS1, growth recovery by OD600; Potency, µM (titrated, usually from 46.1 µM), without a hit: at the highest dose activity, positive = more growth; hit rate 0.4% among 270,000; active means well fitted rising curve with a large enough effect; inconclusive means small, poorly fitted or top-dose-only effect; inactive means no such curve, though single readings can be large or run the other way; further: nearly all actives have a fitted effect of over 50% in size
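OD600 was taken as the measure of yeast growth restored by compound in an NS1-expressing S. cerevisiae strain. Cells had been washed out of glucose medium and diluted 1:100 into galactose -URA medium, pH 6.0.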
SARS PLP yeast: SARS-CoV PLP inhibition in yeast. S. cerevisiae expressing SARS-CoV PLpro, growth rescue; control for the full effect not named in the record. hit rate 0.19% among 330,000. Potency, µM (doses to about 32.9 µM), without a hit: top-dose activity, positive = growth rescue. AID 485353; active means well fitted rising curve with a large enough effect; inconclusive means small, poorly fitted or top-dose-only effect; inactive means no such curve, though single readings can be large or run the other way; further: 0% is about no effect; nearly all actives have a fitted effect of over 55% in size; growth read by luminescence after 48 h
Cruzain inh Det: inhibitors of Trypanosoma cruzi cruzain with detergent | P25779 | purified cruzain, Z-FR-AMC fluorescence, 0.01% Triton | Potency, µM, for the others: max response, negative = inhibition, actives largely listed as inhibitors | hit rate 0.43% among 200,000 | AID 1478;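 further: plate controls were neutral wells for no effect and buffer without enzyme for full effect; nearly all actives have a fitted effect of over 40% in size; top concentration of the series not given in the record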
Target sequence (P25779 123-467 limits assumed): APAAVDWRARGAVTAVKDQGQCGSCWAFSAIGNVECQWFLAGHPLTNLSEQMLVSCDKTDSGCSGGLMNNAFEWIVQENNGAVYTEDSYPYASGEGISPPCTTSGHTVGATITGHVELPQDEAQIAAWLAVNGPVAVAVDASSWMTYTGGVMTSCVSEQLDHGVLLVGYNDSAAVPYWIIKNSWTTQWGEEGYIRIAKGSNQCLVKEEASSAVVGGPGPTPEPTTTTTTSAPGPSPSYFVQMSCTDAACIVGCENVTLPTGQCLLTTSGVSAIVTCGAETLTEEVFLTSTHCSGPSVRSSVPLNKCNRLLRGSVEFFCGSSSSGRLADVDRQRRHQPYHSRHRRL
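Sodium acetate buffer (100 mM, pH 5.5) containing 5 mM DTT and 0.01% Triton X-100 hosted 1.5 nM cruzain and test compound for 15 min at room temperature. Cleavage of 2 uM Z-FR-AMC was then tracked by fluorescence.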
RE007 growth inh: less growth of the S. pombe RE007 Vpr strain. S. pombe RE007 Vpr strain, BacTiter-Glo ATP luminescence, 24 h; control for the full effect not named in the record. Potency, µM (top dose mostly 92.2 µM), for the others: at the top dose activity change, negative = less growth. hit rate 0.21% among 360,000. AID 651644; active = well fitted falling curve with a large enough effect; inconclusive = small, poorly fitted or top-dose-only effect; inactive = no such curve, though single readings can be large or run the other way;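 further: on the % scale 0 is the no-effect control and ±100 the full control effect; nearly all actives have a fitted effect of over 50% in size; the assay follows cell death caused by Vpr and the record does not say whether a fall means rescue or toxicity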
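Fission yeast RE007 carrying one integrated HIV-1 vpr copy, seeded at OD 0.01 in PMG+AL medium with 23 nL pinned compound. Grown 24 h at 30 degrees; viability read by BacTiter-Glo luminescence after 5 min.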
Marburg entry inh: inhibitors of Marburg virus binding or cell entry; Marburg virus pseudotyped entry inhibition, cell reporter; control for the full effect not named in the record; about a third of the inactives were read at about 46 µM; Potency, µM (top dose mostly 37.8 µM), inactives show at the top dose activity change, negative = inhibition, usual class: inhibitors; hit rate 1.8% among 300,000; AID 540276; active = well fitted inhibition curve with a large enough effect; inconclusive = small, poorly fitted or top-dose-only effect, or effect the other way; inactive = flat fitted curve, though single readings scatter; tested in HEK293 cells; about a fifth of its hits are not listed in these tables; further: on the % scale 0 is the no-effect control and ±100 the full control effect; luciferase read-out
LASV entry inh: inhibitors of Lassa virus binding or cell entry. Lassa virus pseudotype entry inhibition, cell reporter; control for the full effect not named in the record. Potency, µM (top dose mostly 37.9 µM), for the others: at the highest dose activity change, negative = inhibition, hits mostly inhibitors. hit rate 1.2% among 300,000; active means well fitted inhibition curve with a large enough effect; inconclusive means small, poorly fitted or top-dose-only effect, or effect the other way; inactive means flat fitted curve, though single readings scatter; tested in HEK293 cells; further: on the % scale 0 is the no-effect control and ±100 the full control effect; nearly all actives have a fitted effect of over 50% in size; luciferase read-out
Cruzain inh noDet: blocks cruzain activity in detergent-free assay. hit rate 2.3% among 200,000. P25779. Potency, µM, inactives show max response, negative = inhibition, actives largely listed as inhibitors. purified cruzain, Z-FR-AMC fluorescence, no detergent. AID 1476;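 further: plate controls were enzyme without inhibitor for no effect and buffer without enzyme for full effect; nearly all actives have a fitted effect of over 40% in size; top concentration of the series not given in the record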
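Detergent-free condition (0.00005% Triton X-100) in acetate buffer pH 5.5 with DTT. 1.5 nM enzyme and compound were pre-mixed 15 min, then 2 uM Z-FR-AMC substrate added; reaction progress from fluorescence change between first and third reads (60 s).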
* = called active by the depositor; ? = inconclusive; nt = no result given; & = joins results of further samples; [ ] = another dose, or the depositor's remark. Unless noted, the call rests on the fitted dose curve; in most records, active means well fitted curve in the direction sought with a large enough effect; inconclusive means small, poorly fitted or top-dose-only effect, or another doubt; inactive means no such curve, though single readings can be large; an effect the other way counts as inactive or inconclusive. Potency means the concentration at half of the fitted maximal effect.

SMILES	2A StopGo	NS1 function inh	SARS PLP yeast	Cruzain inh Det	RE007 growth inh	Marburg entry inh	LASV entry inh	Cruzain inh noDet
COc1ccccc1NC(=O)CN1C(=O)C2(SCC(=O)N2c2ccc(C)c(C)c2)c2ccccc21 (stereo unspecified)	?	nt	nt	-2.3%	nt	nt	?	-21%
COc1cccc(C(=O)Nc2ccc(Cl)c(-c3nc4ccccc4[nH]3)c2)c1	?	nt	nt	-5.0%	nt	?	?	?
C/C=C/c1ccc(OCC(=O)N(C)CC(=O)Nc2ccc(F)cc2)c(OC)c1	-1%	nt	-2%	nt	15%	-13%	-3%	nt
COc1ccc(S(=O)(=O)n2cnc3ccccc32)cc1	-4%	-3%	-2%	nt	-19%	1%	10%	nt
CCOC(=O)C1CCN(Cc2ccc(OCc3ccccc3)cc2)CC1	11%	-41%	0%	nt	-12%	nt	nt	nt
COc1cccc(C(=O)Nc2ccc3c(C)cc(=O)oc3c2)c1	15%	-1%	5%	nt	-4%	nt	nt	nt
O=C(NCc1cccs1)C1CCCN1S(=O)(=O)c1ccccc1F (stereo unspecified)	11%	0%	-8%	-0.4%	-7%	-2%	14%	-10%
CCOc1ccc(S(=O)(=O)N(CC(=O)NC2CCCCC2C)Cc2ccco2)cc1 (stereo unspecified)	-5%	3%	-1%	-4.1%	1%	-12%	-13%	-6%
COCc1ccc(C(=O)N2CCCC(Nc3ccc4c(c3)OCCO4)C2)o1 (stereo unspecified)	0%	-11%	1%	nt	1%	-3%	?	nt
O=C(COc1ccc2c3c(c(=O)oc2c1)CCC3)NC1CCN(Cc2ccccc2)CC1	-1%	1%	-7%	nt	-10%	nt	nt	nt
CCOc1cccc(CNCCCSc2nnnn2C)c1	1%	nt	nt	-1.9%	nt	?	-3%[46.1 µM]	9%
O=C(c1ccc2c(c1)OCO2)N1CCCN(C(=O)c2ccc3c(c2)OCO3)CC1	-8%	6%	-1%	7.9%	4%	9%	-13%	-2%
Cn1cc(S(=O)(=O)N2CCN(c3ccccc3F)CC2)c(=O)n(C)c1=O	-10%	-7%	5%	0.7%	-8%	nt	nt	4%
O=C(NCc1ccncc1)C1CCN(C(=O)c2cccc(Cl)c2)CC1	-13%	-6%	1%	nt	-1%	16%[46.1 µM]	10%	nt
CCCCC[C@H]1CN(CCCC)C(=O)[C@@H]1CC(=O)NCc1ccc(OC)cc1	-24%	-47%	6%	nt	5%	nt	nt	nt
CC1=C(C(=O)Nc2nc3ccccc3s2)C(c2ccco2)C(C#N)=C(SCC(=O)NC2CCCCC2)N1 (stereo unspecified)	-13%	?	1%	-13%	3%	?	-6%	?
Cc1ccc(CN2CCSc3ccc(C(=O)NCCCN4CCN(C)CC4)cc32)cc1	-4%	-1%	-5%	nt	14%	nt	nt	nt
Cc1cccc(C(=O)Nc2ccccc2SCc2cc(=O)c3cccc(C)c3[nH]2)c1	1%	nt	nt	2.2%	nt	nt	-14%[46.1 µM]	-10%
CCOc1nc(CC(C)C)c2c(c1C#N)CC(C)(C)OC2	-17%	-1%	-1%	nt	1%	0%	-5%	nt
CCOC(=O)CSc1nc2c(sc(=S)n2-c2ccccc2OC)c(=O)n1Cc1ccco1	-28%	16%	17%	0.2%	-25%	-4%	5%	-14%

An excerpt from above in order of molar mass, smallest number first.
SMILES	2A StopGo	NS1 function inh	SARS PLP yeast	Cruzain inh Det	RE007 growth inh	Marburg entry inh	LASV entry inh	Cruzain inh noDet
CCOc1cccc(CNCCCSc2nnnn2C)c1	1%	nt	nt	-1.9%	nt	?	-3%[46.1 µM]	9%
O=C(NCc1cccs1)C1CCCN1S(=O)(=O)c1ccccc1F (stereo unspecified)	11%	0%	-8%	-0.4%	-7%	-2%	14%	-10%
C/C=C/c1ccc(OCC(=O)N(C)CC(=O)Nc2ccc(F)cc2)c(OC)c1	-1%	nt	-2%	nt	15%	-13%	-3%	nt

New compounds follow:
SMILES	2A StopGo	NS1 function inh	SARS PLP yeast	Cruzain inh Det	RE007 growth inh	Marburg entry inh	LASV entry inh	Cruzain inh noDet
O=C(NCC1CCCO1)c1ccc(N2C(=O)C3CCCCC3C2=O)cc1 (stereo unspecified)	9%	2%	1%	nt	7%	6%[46.1 µM]	6%[46.1 µM]	nt
CC(=O)c1ccc(OC(=O)CN2C(=O)c3ccccc3C2=O)cc1	1%	-35%	-1%	nt	-21%	nt	nt	nt
CCOc1ccccc1N(C(=O)c1ccccc1Cl)C1=NC(C)(C)CS1	-15%	nt	-3%	nt	-21%	?	28%	nt
CCCCNC(=O)C1CCCN(S(=O)(=O)CCC)C1 (stereo unspecified)	1%	nt	nt	0.7%	nt	nt	?	-1%
COc1ccc(NC(=O)CCS(=O)(=O)c2ccc(Cl)cc2)cc1	0%	0%	3%	nt	5%	23%[46.1 µM]	-12%[46.1 µM]	nt
Cn1nc(C(=O)N2CCc3ccccc3C2)c2ccccc2c1=O	-2%	-9%	10%	3.9%	-1%	3%	7%	-1%
O=c1cc(-c2ccc([N+](=O)[O-])cc2)nc2cc(-c3ccc(F)cc3)[nH]n12	-10%	8%	-16%	-8.2%	-8%	-5%	-9%	?
O=C(c1cccc(NS(=O)(=O)c2cccc([N+](=O)[O-])c2)c1)N1CCOCC1	16%	nt	1%	nt	-8%	1%[46.1 µM]	-20%[46.1 µM]	nt
CCOc1ccc(NC(=O)Cc2ccc(-n3c(C)nc4cccnc43)cc2)cc1	-15%	nt	nt	-2.5%	nt	nt	2%[46.1 µM]	-13%
CCOC(=O)C1=C(CC)NC2=C(C(=O)CCC2)C1c1ccc(OC)c(OC)c1 (stereo unspecified)	12%	-2%	-1%	-1.4%	8%	-1%[46.1 µM]	-7%	6%
COc1ccc(CNC(=O)C2(CC3CC(c4ccccc4)=NO3)CCN(C(=O)C3CCCC3)CC2)cc1 (stereo unspecified)	-3%	14%	-1%	nt	1%	nt	nt	nt
N#Cc1c(Cl)nc(Cl)c2c1CCN(Cc1ccccc1)C2	?	-4%	2%	-9.1%	-4%	?	-5%	-22%
Cc1oc(-c2cccc(Cl)c2)nc1CS(=O)(=O)CC(=O)NC1CCCC1	-5%	-3%	3%	nt	-12%	7%[46.1 µM]	-6%[46.1 µM]	nt
Cn1ccsc1=NC(=O)c1ccc(=O)[nH]c1	-11%	10%	-1%	nt	6%	nt	nt	nt
CC1CCN(c2ccc(C(=O)OCC(=O)NCCN3C(=O)CSC3=O)cc2[N+](=O)[O-])CC1	?	-4%	0%	nt	19%	?	0%	nt
COP(=S)(OC)SCn1nnc2ccccc2c1=O	-28%&-3%	nt	nt	-3.0%&6.1%	?	?	1%	-5%&8%
CC(C)Oc1ccc(C(=O)Nc2c(C(=O)Nc3cccc(F)c3)oc3ccccc23)cc1	32%[activator]	nt	nt	0.0%	nt	0%[46.1 µM]	15%[46.1 µM]	3%
COc1cc(CC(=O)OCC(=O)NC2CCCCCC2)cc(OC)c1OC	-15%	nt	12%	nt	2%	-1%	0%	nt
S=C(NCc1ccc2c(c1)OCO2)NC1CCN(Cc2ccccc2)CC1	21%	-12%	-3%	nt	-8%	?	?	nt
O=C(CSc1nnc(-c2cccnc2)o1)OC1CCCCC1	13%	7%	-5%	0.7%	6%	11%	16%	-4%
COc1ccc(C(=O)c2ccccc2)cc1	22%	nt	-1%	nt	-20%	?	-21%	nt
O=C(Nc1cccnc1)c1cc(F)c(F)cc1Cl	-13%	nt	3%	nt	-6%	0%[46.1 µM]	-18%[46.1 µM]	nt
COc1ccccc1CCC(=O)Nc1ncc(C)s1	24%	4%	0%	nt	5%	nt	nt	nt
Cc1ccccc1CNC(=O)CCc1ccccc1	78%[activator]	-4%	0%	nt	-15%	?	-1%	nt
COc1cccc(C2(O)CCN(Cc3ccncc3)CC2)c1	-19%	4%	0%	nt	5%	2%	15%	nt
O=C1CCCN1S(=O)(=O)c1ccc(F)cc1	9%	18%	-2%	nt	-10%	nt	nt	nt
Nc1ncnc(N2CCOCC2)n1	-19%	nt	nt	nt	14%	?	19%	nt
COc1cc(C(=O)N/N=C/c2sc(=O)n(-c3ccccc3)c2Cl)cc(OC)c1OC	3%	-7%	-24%	-10%	1%	-49%	?	?
COc1cccc(NC(=O)c2csnn2)c1	50%[activator]	nt	nt	-11%	nt	?	17%[46.1 µM]	-6%
COC(=O)c1ccc(COc2nc(C)cc(C)c2C#N)o1	5%	-11%	-2%	2.5%	-9%	23%	37%[14.3 µM]	-16%
Cc1nc(C)c(C(=O)N(c2ccc(C)c(C)c2)C(C(=O)NCc2ccco2)c2ccccc2)s1 (stereo unspecified)	nt	2%	0%	-4.9%	-8%	?	4.6µM*	?
COc1cc(C2Nc3ccccc3-c3nnc(SCc4ccc(Cl)cc4)nc3O2)ccc1OCC(=O)O (stereo unspecified)	13%	nt	nt	-8.2%	nt	3%[46.1 µM]	5%[46.1 µM]	-12%

4 entries from above in a different format:
> Nc1ncnc(N2CCOCC2)n1
  2A StopGo = -19%	NS1 function inh = nt	SARS PLP yeast = nt	Cruzain inh Det = nt	RE007 growth inh = 14%	Marburg entry inh = ?	LASV entry inh = 19%	Cruzain inh noDet = nt

> COc1cc(C(=O)N/N=C/c2sc(=O)n(-c3ccccc3)c2Cl)cc(OC)c1OC
  2A StopGo = 3%	NS1 function inh = -7%	SARS PLP yeast = -24%	Cruzain inh Det = -10%	RE007 growth inh = 1%	Marburg entry inh = -49%	LASV entry inh = ?	Cruzain inh noDet = ?

> COc1cccc(NC(=O)c2csnn2)c1
  2A StopGo = 50%[activator]	NS1 function inh = nt	SARS PLP yeast = nt	Cruzain inh Det = -11%	RE007 growth inh = nt	Marburg entry inh = ?	LASV entry inh = 17%[46.1 µM]	Cruzain inh noDet = -6%

> COC(=O)c1ccc(COc2nc(C)cc(C)c2C#N)o1
  2A StopGo = 5%	NS1 function inh = -11%	SARS PLP yeast = -2%	Cruzain inh Det = 2.5%	RE007 growth inh = -9%	Marburg entry inh = 23%	LASV entry inh = 37%[14.3 µM]	Cruzain inh noDet = -16%

Compound activity (PubChem BioAssay)
